# Biofilm kill mix = mixture kills Candida albicans biofilm cells. actives 0.02% (n = 120,000). inhibition, % at 7.6 µM. C. albicans biofilm persisters + clotrimazole, fluorescence viability; primary screen in compound mixtures of four per well;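 active = inhibition above 30.3% in the primary screen of four-compound pools, then above 30% when the compound was retested; inconclusive = passed the primary limit but could not be retested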;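 also: compounds exposed to preformed 24 h biofilms for 48 h; the number belongs to the whole pool; some results filed as inactive read as strong as hits; inactives centre near 12; 0% = biofilm with clotrimazole alone and 100% = kill control; retested singly at about 60 µM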
#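 Probe or stimulus – Clotrimazole 50 µg/mL co-treatment · System – C. albicans biofilms · Schedule – 24 h biofilm formation, then 48 h compound exposure, 37 °C · Evaluation – percent inhibition of biofilm viability · Technique – 2-h Alamar Blue fluorescence, 535/590 nm excitation/emission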
# Active calls of the source: *; ? = inconclusive.
SMILES,Biofilm kill mix
COc1ccccc1N1C(=O)C2C(C(=O)c3ccccc3)=NN(c3ccccc3OC)C2C1=O (stereo unspecified),-3.0
COc1ccc(NC(=O)c2cc(Br)c(Br)s2)cn1,14.4
COc1ccc(S(=O)(=O)N2CCc3ccccc3C2)cc1,9.4
Cc1cc(C)c(NC(=O)CSc2nncn2-c2cccnc2)c(C)c1,1.4
CC(C)c1ccc(-c2nc3ccccc3s2)cc1,21.8
O=C(NCc1ccc2c(c1)OCO2)C1CCC(=O)N1C1CCCC1 (stereo unspecified),20.5
COc1ccc(NC(=O)C(c2ccc(OC)cc2)N(C)C(=O)Cc2cccs2)cc1 (stereo unspecified),5.1
O=C(COc1ccc(F)cc1)N1CCc2ccccc2C1,27.4
CCCCc1c(C)nc2c(OC)cccc2c1SCC(=O)O,6.3
CCn1c(SCC(=O)NC(C)(C)C)nnc1-c1ccncc1,12.8
CC1=NN(c2ccccc2)C(=O)/C1=C\c1cn(-c2ccccc2)nc1C,4.4
CCc1nnc(NC(=O)CSc2nnc(-c3ccc(NS(=O)(=O)c4ccccc4)cc3)o2)s1,6.8
COc1ccc(CCN(C(=O)/C=C/C(=O)O)C2CC(=O)N(c3ccccc3)C2=O)cc1 (stereo unspecified),25.0
O=c1c2ccccc2[nH]c2ccc(F)cc12,-0.4
O=C1C2C(c3cccc(/C=C/c4ccccc4)c3)CC=CC2C(c2ccc3ccccc3c2)N1Cc1ccccc1 (stereo unspecified),15.3
Cn1nc(C(F)(F)F)c(-c2ccc(F)cc2)c1NC(=O)Nc1ccc(F)cc1,17.1
CC(C)Oc1cccc(C(=O)C2CCCN(Cc3ccc4nonc4c3)C2)c1 (stereo unspecified),11.4
Cc1ccccc1CSCCNC(=S)Nc1ccccc1,4.6
Nc1c(Cl)ncnc1N/N=C/c1ccccn1,?
COc1ccc(NC(=O)CC2C(=O)N(c3ccc(OC)cc3)C(=S)N2NC(=O)c2cccc(F)c2)cc1 (stereo unspecified),6.5
COCC(C)NC(=O)c1cccc([N+](=O)[O-])c1 (stereo unspecified),13.6
COc1ccccc1-c1cc(C(=O)N/N=C\c2cn(C)nc2C)c2ccccc2n1,16.2
C/C(=N\NC(=O)c1n[nH]c2c1CCC2)c1cccs1,11.0
O=S(=O)(CC(O)COc1ccc(Br)cc1)c1ccccc1 (stereo unspecified),12.7
CCSc1nnc(NC(=O)/C=C/c2ccc3c(c2)OCO3)s1,8.2

# As a short view, part of the list above.
SMILES,Biofilm kill mix
Cc1ccccc1CSCCNC(=S)Nc1ccccc1,4.6
Nc1c(Cl)ncnc1N/N=C/c1ccccn1,?
COc1ccc(NC(=O)CC2C(=O)N(c3ccc(OC)cc3)C(=S)N2NC(=O)c2cccc(F)c2)cc1 (stereo unspecified),6.5
COCC(C)NC(=O)c1cccc([N+](=O)[O-])c1 (stereo unspecified),13.6
COc1ccccc1-c1cc(C(=O)N/N=C\c2cn(C)nc2C)c2ccccc2n1,16.2
C/C(=N\NC(=O)c1n[nH]c2c1CCC2)c1cccs1,11.0
O=S(=O)(CC(O)COc1ccc(Br)cc1)c1ccccc1 (stereo unspecified),12.7

# Shown as tab-separated lines: four of the compounds above.
smiles	Biofilm kill mix
Nc1c(Cl)ncnc1N/N=C/c1ccccn1	?
COc1ccc(NC(=O)CC2C(=O)N(c3ccc(OC)cc3)C(=S)N2NC(=O)c2cccc(F)c2)cc1 (stereo unspecified)	6.5
COCC(C)NC(=O)c1cccc([N+](=O)[O-])c1 (stereo unspecified)	13.6
COc1ccccc1-c1cc(C(=O)N/N=C\c2cn(C)nc2C)c2ccccc2n1	16.2

# In the list so far, these contain bromine.
SMILES,Biofilm kill mix
COc1ccc(NC(=O)c2cc(Br)c(Br)s2)cn1,14.4
O=S(=O)(CC(O)COc1ccc(Br)cc1)c1ccccc1 (stereo unspecified),12.7

# Continuation.
SMILES,Biofilm kill mix
COc1ccccc1NS(=O)(=O)c1ccc(N2CCOCC2)c(NC(=O)c2ccco2)c1,3.9
O=C(O)c1ccc(NS(=O)(=O)c2ccc3c(c2)C(=O)c2ccccc2C3=O)cc1,20.2
Nc1ccccc1S(=O)(=O)NC1=NCCCCC1,6.5
CCN(CC#CCC(O)(c1ccccc1)c1ccccc1)C(C)C,13.4
CCC(=O)NC(Nc1nc(C)cs1)(C(=O)OC)C(F)(F)F (stereo unspecified),18.4
O=C1NC(c2ccccc2)=NC1(Nc1ccccn1)C(F)(F)F (stereo unspecified),15.1
COc1cc(OC)cc(C(=O)N2CCN(C(=O)c3ccc(-c4ccccc4)cc3)CC2)c1,5.0
Cc1ccccc1NC(=O)CN1C(=O)CSc2ccccc21,17.4
CCOC(=O)C1C(=O)OC(C)(C)C1C(C)C(=O)c1ccc(C)cc1C (stereo unspecified),15.4
COc1ccc(C(=O)NC(=S)N2CCCc3ccccc32)cc1OC,-1.9
S=c1[nH]nc(-c2ccc(Br)cc2)n1-c1ccc2c(c1)OCCO2,21.6
Cc1c(C2=CCN(S(=O)(=O)c3ccc(Cl)cc3)CC2)c2ccccc2n1C,8.5
COc1ccc(N(CC(O)Cn2cnc3ccccc32)S(=O)(=O)c2ccc(C)cc2)cc1 (stereo unspecified),14.0
CCOC(=O)Cc1c(C)nc2cc(C)nn2c1C,18.0
Cc1cc(N2CCN(C(=O)c3ccco3)CC2)nc(-c2ccccc2)n1,8.4
Cc1ccc(/C=C/C(=O)O)cc1S(=O)(=O)N1CCCCC1,22.0
COc1ccc(CCNC(=O)CCCn2nc(C)c([N+](=O)[O-])c2C)cc1OC,7.2
Cc1ccc(C)c(OCc2nc3ccc(S(=O)(=O)Nc4c(C)n(C)n(-c5ccccc5)c4=O)cc3[nH]2)c1,11.2
CCOC(=O)c1ccc(NC(=O)COc2cc3oc(=O)c(CC(C)O)c(C)c3cc2Cl)cc1 (stereo unspecified),13.7
O=C(Nc1cccc(S(=O)(=O)NC2=NCCCCC2)c1)c1cc(-c2ccncc2)nc2ccccc12,11.0
COCCCN=C1NN=C(c2cc(C)n(-c3ccccc3F)c2C)CS1,-3.0
COc1ccc(CCNC(=O)CC2SC(=NCCc3ccccc3)NC2=O)cc1 (stereo unspecified),6.5
CCOc1cccc(/C=N/NS(=O)(=O)c2ccc(C)c([N+](=O)[O-])c2)c1O,9.6
CCC1CCc2c(sc3nc(SCC(=O)NCc4ccco4)n(-c4ccccc4)c(=O)c23)C1 (stereo unspecified),15.1
COc1ccc(C(=O)C2CCCN(Cc3cccn3-c3ccc(Cl)cn3)C2)c(OC)c1 (stereo unspecified),30.9
SMILES,Biofilm kill mix
C/C(=N\NC(N)=S)c1ccncc1,9.0
CCOC(=O)c1cnc2c([N+](=O)[O-])cnn2c1C,7.7
CN1CCC2(CC1)N=C(c1ccc(F)cc1)C(=S)N2C(=O)c1ccccc1,-10.0
Nc1c(Cl)ncnc1N/N=C/c1cccnc1,14.4
CC1(c2ccccc2)NC(=O)N(CC(=O)Nc2ccc([N+](=O)[O-])cc2)C1=O (stereo unspecified),4.0
O=C(c1cccc([N+](=O)[O-])c1)c1ccc2c(c1)OCCOCCOCCO2,-4.8
O=c1c2oc3nc4c(cc3c2ncn1CCCc1ccccc1)CCCC4,14.9
COc1ccccc1OCCNC(=O)Nc1cc(F)c(F)cc1Cl,27.5
Cc1ccc(-n2cc(CN(C)Cc3ncc[nH]3)c(-c3cccc(C)c3)n2)cc1,3.7
C#CCOCCOCCOCCNc1nc(N2CCN(C(=O)[C@H](CCC(=O)O)n3cc(C(N)CO)nn3)CC2)nc(N2CCN(C(=O)[C@H](Cc3ccc(O)cc3)n3cc(C(N)[C@H](C)CC)nn3)CC2)n1 (stereo partly specified),11.2
N#CC1=C(N)Oc2cc(O)ccc2C1c1cccnc1 (stereo unspecified),12.1
CC(=O)c1c(N2CCN(CCO)CC2)nc(=S)n(-c2ccccc2)c1C,5.4
N=c1n(Cc2ccc(Cl)cc2)c2ccccc2n1CC(O)COc1ccccc1 (stereo unspecified),27.1
COc1ccc(NC(=O)CSc2ccc(C)cc2)cc1,11.2
CCc1ccc(OCc2n[nH]c(=S)n2C(C)CCCC(C)C)cc1 (stereo unspecified),0.8
CSc1cccc(NC(=S)N2CCC(N(C)C3CCCCC3C)CC2)c1 (stereo unspecified),23.2
COc1ccc(CCNC(=O)Cc2cccs2)cc1,5.5
Cc1n[nH]c(=O)c2ccccc12,16.8
O=C(N/N=C/c1ccc([N+](=O)[O-])o1)c1ccccc1NS(=O)(=O)c1cccs1,12.4
Cc1ccc(/C=C2/SC(=S)N(CCC(=O)N3CCN(C)CC3)C2=O)cc1,17.2
Cc1ccc(SCn2nnc3ccccc3c2=O)c(C)c1,14.0
CCOc1cc(/C=C/c2cc(C(=O)O)c3ccccc3n2)ccc1O,3.0
COc1ccccc1C(=O)NNC(=O)c1ccccc1F,20.4
CCN(CC)c1ccc(/C=N/NC(=O)Cc2cccs2)c(O)c1,14.8
COc1cccc(NC(=O)c2cc([N+](=O)[O-])ccc2NCc2cccnc2)c1,7.3
SMILES,Biofilm kill mix
Cc1cc([N+](=O)[O-])nn1CC(=O)NCCCn1ccnc1,16.3
O=C(Nc1ccc2nc(-c3ccco3)c(-c3ccco3)nc2c1)NC1CC1,13.6
O=C1/C(=C/c2ccc(O)cc2)SC(=S)N1CC1CCCO1 (stereo unspecified),16.6
O=C(Nn1cnnc1)c1cc([N+](=O)[O-])cc([N+](=O)[O-])c1,1.3
c1cncc(CNc2ncnc3sccc23)c1,1.6
CCCNC(=O)c1ccc2snnc2c1,14.2
CC(=O)Nc1ccc(NC(=O)Nc2ccc3c(c2)N(C)C(=O)CS3)cc1,10.7
N/C(=N\OC(=O)COc1ccc(Br)cc1Cl)c1cccnc1,14.4
Cc1ccccc1N1CCN(CCCOc2ccc3c(C)cc(=O)oc3c2)CC1,18.7
Cc1cc(C)c(NC(=O)COC(=O)c2ccc([N+](=O)[O-])s2)c(C)c1,11.9
OC1(c2cccs2)CN(c2ccccc2)C2=[N+]1CCCC2 (stereo unspecified),20.9
CCOC(=O)c1c(C)[nH]c(C2=NNC(=Nc3ccccc3)SC2)c1C,16.8
COc1cc2c(cc1OC)C(C1C(=O)CC(C)(C)CC1=O)N(C(=O)CCl)CC2 (stereo unspecified),20.6
Cc1cccc(OCCOCCN2CCNCC2)c1C,6.4
CCCCCCNC(=O)CC(NS(=O)(=O)c1ccc(OC)cc1)C(C)C (stereo unspecified),11.1
COc1cccc(C(=O)N2CCN(S(=O)(=O)Cc3ccccc3)CC2)c1OC,10.5
CN(C)C(CNC(C(=O)Nc1ccc([N+](=O)[O-])cc1Br)c1ccccc1)c1ccccc1 (stereo unspecified),9.4
COc1ccc(C)cc1N(CC(=O)N1CCc2ccccc2C1)S(C)(=O)=O,14.2
CSc1nc2ncc(C(=O)O)c(N)n2n1,14.8
CC1CCCC(C)N1C(=O)COC(=O)c1cc(Br)ccc1Cl (stereo unspecified),16.3
CC(C)(C)NC(=O)NC(=O)COc1ccc(Br)cc1Br,11.0
CCCNC(=O)NS(=O)(=O)c1ccc(Cl)cc1,10.4
CC(C(=O)c1c[nH]c(C(=O)N=CN(C)C)c1)c1ncc(C(F)(F)F)cc1Cl (stereo unspecified),15.2
NC(=O)c1cc(-c2ccccc2)sc1NC(=O)CN1CCCCC1,15.7
COc1ccc(Cc2n[nH]c(=S)n2N)cc1OC,17.5

# Copied from the list:
# N/C(=N\OC(=O)COc1ccc(Br)cc1Cl)c1cccnc1 in Biofilm kill mix has 14.4
# Cc1cc(C)c(NC(=O)COC(=O)c2ccc([N+](=O)[O-])s2)c(C)c1 in Biofilm kill mix has 11.9

# New compounds follow.
SMILES,Biofilm kill mix
O=C(CSC1=NCCN1)Nc1cccc(C(F)(F)F)c1,10.5
CNC(=O)C(=O)N/N=C/c1cccnc1,7.9
O=S(=O)(Nc1ccccn1)c1ccc(C(F)(F)F)cc1Cl,16.8
Cn1c(O)c(/C=C2\C=Nc3ccccc32)sc1=Nc1ccc(C(=O)O)cc1,13.7
NC(=O)N/N=C/c1c(Sc2nnnn2-c2ccccc2)nc2ccccn2c1=O,23.0
COc1ccc(-c2cc(C(=O)NN)[nH]n2)cc1OC,13.9
CC1CCCCC1NC(=O)C1CC=CCC1C(=O)O (stereo unspecified),7.0
COc1cc(C)c(-c2[nH]ncc2-c2csc(C)n2)c(O)c1,25.8
CCCCN(C)C(=O)c1nc2ccccn2c1CN1CCN(c2ccccn2)CC1,-2.6
CCC(=O)Nc1nnc(SCCN2CCOCC2)s1,15.3
O=C(NCC(=O)N(Cc1cccs1)C(C(=O)NC1CCCC1)c1cccnc1)c1ccco1 (stereo unspecified),14.3
CCOC(=S)SCC(=O)N1CCc2ccccc2C1C1C(=O)CC(C)(C)CC1=O (stereo unspecified),9.7
CN1C(C(=O)NCCc2cccs2)CC2Cn3c(nc4cc(Cl)c(Cl)cc43)C21 (stereo unspecified),12.4
COc1ccc(CCn2cnc(=O)c(C#N)c2C)cc1OC,8.5
CCCOc1ccccc1NC(=O)CC1Nc2ccccc2NC1=O (stereo unspecified),16.6
COc1ccc(/C=N/NC(=O)c2cccc(COCC(F)(F)C(F)F)c2)cc1,7.8
CCOc1ccc(-n2nc3c(=O)[nH]nc(C)c3c2C)cc1,8.0
Cc1cnnn1-c1cccc([N+](=O)[O-])c1,5.9
CC1CC(C)CN(CCOCCSc2ccc(Cl)cc2)C1 (stereo unspecified),8.2
Cc1ccc(NC(=O)c2ccc(OC(=O)COc3ccc(Cl)cc3C)cc2)cc1,8.0
CCn1c(C)nc2cc(C(=O)NNC(=S)Nc3ccc(C)cc3)ccc21,11.7
CCN(C(=O)CSc1n[nH]c(-c2cccs2)n1)C1CCS(=O)(=O)C1 (stereo unspecified),10.8
CC(C)(C)OC(=O)N/N=C/c1ccc(C(=O)O)cc1,11.7

# Screens: PubChem, PCMD

# A portion of the library; count on the stated rates, not on these rows.
